HCMV UL50-53 inh: inhibitors of HCMV UL50-UL53 nuclear egress complex interaction; HTRF UL50-UL53 interaction, normalized percent inhibition; inhibition, % (concentration not given with the values); 190,000 tested, 0.15% active;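 active means both replicates at 50% or more, plus weaker picks with an unusually low signal ratio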;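 further: stock transfer was 100 nL into about 20 µL; 0% = negative control wells and 100% = wells with untagged competitor protein; inactives centre near -12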
Sa growth inh: blocks Staphylococcus aureus growth; S. aureus RN4220 growth, OD600, 20 h, 42 °C; active compounds read low; relative growth, % (no concentration beside the values); 170,000 tested, 0.53% active; AID 720641;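 active means growth at 42 °C up to 50% and 20 or more points under that at 30 °C, or under 10% at both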;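 further: 300 nL library stock went into each well; scaled to the means of positive and negative controls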
GIV-Gai inh: GIV-Galpha-i interaction inhibition; percent of control (FP), % (concentration not given with the values); 210,000 tested, 0.42% active; Galpha-i3/FITC-GIV peptide fluorescence polarization, 90 min; active compounds read low; scaled: aluminum fluoride 0%, vehicle 100%; P08753;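 active means replicate mean at 85% of control or lower, very high polarization wells dropped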;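 further: wells of about 15 µL received 100 nL stock; the first replicate is given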
Target sequence (P08753 whole entry, looked up): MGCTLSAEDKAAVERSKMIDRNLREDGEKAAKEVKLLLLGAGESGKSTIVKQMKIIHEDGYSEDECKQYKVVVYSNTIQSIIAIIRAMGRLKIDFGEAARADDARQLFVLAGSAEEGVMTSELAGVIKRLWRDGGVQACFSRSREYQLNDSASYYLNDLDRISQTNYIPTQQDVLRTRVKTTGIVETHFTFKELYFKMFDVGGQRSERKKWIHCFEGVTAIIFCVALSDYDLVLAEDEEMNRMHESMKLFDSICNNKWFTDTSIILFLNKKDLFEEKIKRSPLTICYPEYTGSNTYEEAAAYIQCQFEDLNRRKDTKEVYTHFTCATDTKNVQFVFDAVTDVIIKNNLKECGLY
Sa growth inh second temp: further read-out of Sa growth inh, marked with its call; relative growth, %; measured here: growth at 30 °C;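 optical density after 20 h as mean of two plates; 100% = untreated growth and lower means inhibition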
An asterisk follows results filed as active; · = no result given; & = joins results of further samples.

SMILES | HCMV UL50-53 inh | Sa growth inh | Sa growth inh second temp | GIV-Gai inh
COc1cc(-c2c(C#N)c(N)nc3sc(C(=O)c4ccc(Cl)cc4)c(N)c23)cc(OC)c1OC | -18 | · | · | 95
Cc1c(CSC(=N)N)c(C)c(CSC(=N)N)c(C)c1CSC(=N)N | -13 | 74 | 80 | 103
COc1ccc(-c2nc3cnccn3c2Nc2ccc3c(c2)OCCO3)cc1OC | -2 | · | · | 112
CC(=O)N1c2ccccc2CC1C(=O)NCCc1c[nH]c2ccccc12 (configuration not stated) | -18 | · | · | 105
CSc1nnc2c(n1)OC1(Nc3ccccc3-2)C(=O)Nc2ccc([N+](=O)[O-])cc21 (configuration not stated) | 34* | · | · | 86
O=C(c1cnn2cc(Br)cnc12)N1CCCC1c1ccc(F)cc1 (configuration not stated) | -4 | · | · | 102
Cc1cccc(N2CCN(c3nc4ccccc4nc3C(F)(F)F)CC2)c1C | -9 | · | · | 98
COc1ccc(C(=O)N(CCCN2CCOCC2)CCC(=O)N2CCNCC2)cc1 | 12 | · | · | 99
CCn1nccc1C1CCCN1S(=O)(=O)c1ccccc1 (configuration not stated) | -15 | · | · | 100
CC1=C(C(=O)Nc2ccc(Cl)cc2)C2(CCN(S(C)(=O)=O)CC2)OC1=O | -21 | · | · | 107
COc1cccc(-c2cc(-c3nc(-c4ccc5c(c4)OCO5)no3)[nH]n2)c1 | -20 | · | · | 103
CC(C)CN(CC(C)C)C(=O)C1CCCN(S(=O)(=O)c2ccc3c(c2)oc(=O)n3C)C1 (configuration not stated) | -22 | 107 | 85 | 107
COc1ccc(Nc2c(-c3cc(Br)ccc3O)nc3cnccn23)cc1 | -8 | 78 | 76 | 98
CCOC(=O)Cc1c(C(=O)OCC)nnc2c(-c3ccccc3)c(C)nn12 | -96 | 88 | 88 | 104
COc1ccc2c(c1)OC1(C)CC2C(S(=O)(=O)c2ccccc2)C(=O)N1 (configuration not stated) | · | 89 | 86 | 104
CC(Oc1ccc(/C=C2\C(=O)NC(=S)N(c3cccc(Cl)c3)C2=O)cc1)C(=O)O (configuration not stated) | -7 | · | · | 104
Cc1cccc(NC(=O)CC(C)(C)C)c1 | -25 | 107 | 96 | 99
O=C(Cc1n[nH]c(=O)c2ccccc12)OC1CCOC1=O (configuration not stated) | -23 | 81 | 92 | ·
Cc1nc(N)sc1C(N)=O | -2 | 106 | 72 | 100
COc1ccc(CNC(=O)c2cccc(N3CCCS3(=O)=O)c2)cc1OC | -4&-10 | 93 | 89 | 101&96
C=CCn1c(C)cc(C(=O)CSc2nc3ccccc3c(=O)n2CC=C)c1C | -6 | 100 | 96 | ·
O=C(O)C1CC(=O)N(c2ccc(OC(F)(F)F)cc2)C1 (configuration not stated) | -5 | 112 | 93 | 100
COc1ccc(-c2nc(SCC(=O)NCC3CCCO3)c(-c3ccc(F)cc3)[nH]2)cc1OC (configuration not stated) | -3 | 109 | 79 | 102
CCN1C(=O)c2cccc3c(S(=O)(=O)NC(Cc4c[nH]c5ccccc45)C(=O)O)ccc1c23 (configuration not stated) | · | 101 | 87 | 94
Cc1cccc(C)c1NC(=O)CC1C(=O)N(Cc2ccccc2)C(C)c2nc3ccccc3n21 (configuration not stated) | · | 89 | 88 | 108
S=C1NCN(CC2CCCO2)CN1 (configuration not stated) | -28 | 92 | 85 | 107
CC(=O)N1CCc2cc(S(=O)(=O)NC(Cc3ccccc3)C(=O)NCc3ccccc3)ccc21 (configuration not stated) | 3 | 107 | 81 | 106
CC(NC(=S)N1CCc2ccccc2C1)C12CC3CC(CC(C3)C1)C2 (configuration not stated) | · | 91 | 92 | 98
N#Cc1cccc(NC(=O)CNc2ccccc2Cl)c1 | -34 | 107 | 94 | ·
Cc1ccc(NC(=O)Nc2ccc(C(C)(C)C)cc2)cc1 | 3 | 88 | 100 | ·

Sorted by number of heavy atoms (ascending): some entries from above
SMILES | HCMV UL50-53 inh | Sa growth inh | Sa growth inh second temp | GIV-Gai inh
S=C1NCN(CC2CCCO2)CN1 (configuration not stated) | -28 | 92 | 85 | 107
N#Cc1cccc(NC(=O)CNc2ccccc2Cl)c1 | -34 | 107 | 94 | ·
C=CCn1c(C)cc(C(=O)CSc2nc3ccccc3c(=O)n2CC=C)c1C | -6 | 100 | 96 | ·

(list continues)
SMILES | HCMV UL50-53 inh | Sa growth inh | Sa growth inh second temp | GIV-Gai inh
Cc1cc2c(c(SCc3ccc(Cl)cc3)n1)C(=O)OC2 | -4 | 96 | 102 | ·
COc1ccc(CCN2C(=O)N(c3ccc(F)cc3)C(=O)C2CC(=O)Nc2ccccc2)cc1OC (configuration not stated) | -36 | 107 | 82 | 102
NC(=O)c1cc(N)ccc1N1CCCC1 | -28 | 95 | 59 | 106
Cc1nn(Cc2ccc(Cl)cc2)c(C)c1NC(=O)COCc1cc(-c2cccs2)on1 | -5 | 95 | 60 | 104
O=C(CCn1c(=O)c2cccn2c2cccnc21)NCc1ccccc1Cl | · | 98 | 96 | 104
Cc1ccc(C(Nc2ccccn2)c2ccc3cccnc3c2O)cc1 (configuration not stated) | -47 | 73 | 61 | 108
Cc1cccc(CNS(=O)(=O)c2csc(C(N)=O)c2)c1 | · | 72 | 89 | 100
COc1ccc(Cl)cc1NC1=C(C(N)=O)S(=O)(=O)c2ccccc21 | 4 | · | · | 105
Cc1ccc(-c2cc(C(=O)Nc3c(C)n(C)n(-c4ccccc4)c3=O)c3ccccc3n2)o1 | -14 | · | · | 107
O=C(NCCO)c1nnc(-c2ccc3c(c2)OCO3)o1 | · | 82 | 84 | 99
COC(=O)/C(C#N)=C/c1ccccc1I | -17 | 63 | 80 | ·
Cc1cc(NC2C3CC4CC(C3)CC2C4)n2ncnc2n1 (configuration not stated) | 10 | 107 | 94 | 100
COc1ccc(CSc2cccc3cccnc23)cc1 | -53 | 131 | 83 | ·
O=C(COC(=O)CSc1nnc(-c2ccc(Cl)cc2)o1)NC1CCS(=O)(=O)C1 (configuration not stated) | -17 | 80 | 91 | ·
Cc1nn(-c2ccccc2)c(C)c1NC(=O)COC(=O)/C=C/c1cccs1 | -45 | 67 | 92 | ·
Cc1ccccc1N(C)C(=O)NCc1noc2ccccc12 | -10 | 94 | 92 | 101
CCCCOc1ccc(C2=N/C(=C\c3ccc(OC(C)=O)c(OC(C)=O)c3)C(=O)O2)cc1 | -26 | · | · | 72*
C[C@@H]1C(=O)CC[C@@]2(CO)CCC(C)(C)C[C@@H]12 | 4 | 87 | 100 | ·
Cc1ccc(C(=O)COC(=O)c2ccccc2O)cc1 | -2 | 98 | 106 | 104
CCOC(=O)CC(=O)c1ccccc1 | -2 | 97 | 92 | ·
Cc1nc(N(CC(=O)OC2CC(C)CCC2C(C)C)S(=O)(=O)c2ccc(N)cc2)c(C)n1N (configuration not stated) | 18 | 99 | 104 | ·
Cc1cc(C)cc(N2C(N)=NC(N)=NC2c2ccccc2F)c1 (configuration not stated) | -8 | 105 | 89 | 103
N#CC1=C(N)C(C#N)(C#N)C(c2ccco2)C2CN(Cc3ccccc3)CC=C12 (configuration not stated) | -38 | 74 | 60 | -43*
CCOC(=O)CNC(=O)N(C)CCc1noc(C2CCCCC2)n1 | -21 | · | · | 103
O=S(=O)(NC1(C(F)(F)F)Oc2ccccc2O1)c1ccccc1 | 0 | 51 | 63 | 97
Cc1ccc2[nH]cc(NC(=O)N3CC=CCC3)c(=O)c2c1 | -28 | · | · | 105
CC1(C)Cc2c(sc(NC(=O)C3CC3)c2C(N)=O)C(C)(C)N1 | -21 | 87 | 88 | 100
COc1ccc(CCN(C)CCCN2CC(c3ccccc3)CC2=O)cc1OC (configuration not stated) | -15 | 97 | 87 | 94
CC(C)CC(=O)N=C1SC2CS(=O)(=O)CC2N1c1ccccc1 (configuration not stated) | -13 | 96 | 79 | 98
O=C(NCCCn1ccnc1)c1cc(-c2ccccc2)on1 | · | 109 | 97 | 104
COc1ccc(NC(=O)C(Cc2ccccc2)NS(=O)(=O)c2ccc3c(c2)oc(=O)n3C)c(OC)c1 (configuration not stated) | 22 | 113 | 106 | 104
CCOC(=O)c1c(C)oc(NC(=O)COC(=O)COc2ccc3c(c2)CCC3)c1C#N | 27 | 87 | 94 | ·
O=C(NC1CCCCC1)N1CCN(c2ccc(-c3noc(C4CCC4)n3)cc2)CC1 | -10 | · | · | 116
COC(=O)C1=C(O)/C(=C/c2ccc(C(C)(C)C)cc2)N=C1C | · | 92 | 78 | 92
Cc1cc2ncc(-c3cccs3)nc2cc1C | -9 | 116 | 84 | ·
COc1cc(/C=C2/SC(=S)N(CC(=O)O)C2=O)cc(OC)c1 | -64 | · | · | 100
CSCCn1c(C(C)(C)C)cc(C(=O)O)c1C | 4 | 107 | 93 | 101
CCc1ccccc1NC(=O)CN1C(=O)CCSc2ccc(S(=O)(=O)N3CCCC3)cc21 | · | 80 | 60 | 104
Cn1c2ccccc2c2nnc(SCCN3CCOCC3)nc21 | -19 | 82 | 86 | 104
CCOC(=O)CNC(=O)N1CCc2cc(S(=O)(=O)N3CCC(C)CC3)ccc21 | -18&-16 | 109 | 90 | 104&101
CCN1CCC(N(Cc2ccc(F)cc2)C(=O)NC23CC4CC(CC(C4)C2)C3)CC1 | · | 98 | 82 | 101
Cc1cccc(OCc2nc(-c3ccc(C(F)(F)F)cc3)no2)c1C | -11 | 96 | 86 | 99
COc1cccc(C(=O)N(C)C)c1 | 9 | 111 | 89 | 100
Cc1ccc2ncnc(Oc3ncccc3NC(=O)C(C)(C)C)c2c1 | 1 | 104 | 95 | 104
Cc1cc(NCC(C)C)n2nc(C(F)(F)F)c(-c3ccc(F)cc3)c2n1 | -26 | · | · | 102
COC(=O)CSc1nnc(C)c2c(C)n(-c3ccc(Cl)cc3)nc12 | -9 | · | · | 122
O=c1oc2ccc(Br)cc2cc1-c1nc2ccccc2s1 | -16 | · | · | 104
CC(C)(C=O)Cc1cc(C(C)(C)C)c(O)c(C(C)(C)C)c1 | -7&-21 | · | · | 96
Cc1c(C(=O)Nc2ccccc2)nnn1-c1ccc2noc(-c3ccccc3)c2c1 | -18 | · | · | 99
CCc1ccccc1NC(=O)Cn1c(=O)ccc2cc(S(=O)(=O)N3CCC(C)CC3)ccc21 | · | 110 | 90 | 103
Next compounds follow.
SMILES | HCMV UL50-53 inh | Sa growth inh | Sa growth inh second temp | GIV-Gai inh
Cc1cc(C(F)(F)F)c(C#N)c(=S)[nH]1 | -25 | 69&75 | 64&70 | 150
COc1ccc(C(=O)CN2C(=O)COc3ccccc3C2=O)cc1 | 4 | · | · | 105
Cc1ccc2c(c1)c(=O)c1ccccc1n2CC(=O)Nc1ccccc1Br | -10 | · | · | 105
O=C(NC1CCCCC1)c1c[nH]c2ccc(S(=O)(=O)Nc3ccccc3F)cc2c1=O | 16 | 95 | 62 | 105
Cc1c(C(=O)NCc2ccccc2Cl)cccc1-n1cnc2cccnc21 | · | 135 | 96 | 107
O=C1COc2ccc(C3=Nn4c(nnc4-c4ccncc4)SC3)cc2N1 | -18 | 98 | 86 | ·
COC(=O)c1cc2oc(C)cc2n1Cc1cccc(Cl)c1 | -28 | 120 | 91 | 100
O=S(=O)(c1ccc(-c2noc(-c3cnccn3)n2)cc1)N1CCOCC1 | -34 | · | · | 118
COC(=O)CN(c1nc2nc(C)cc(C)n2n1)S(=O)(=O)c1ccccc1 | -8 | · | · | 106
O=C(Cn1c(=O)n(-c2ccccc2)c(=O)c2oc3ccccc3c21)N1CCCC1 | -35 | 94 | 84 | 99
O=C(CN1CCN(Cc2ccc(F)cc2)C1=O)NCc1ccc(F)cc1 | · | 106 | 94 | 101
NS(=O)(=O)c1ccc(NC(=O)c2ccc(S(=O)(=O)N3CCc4ccccc43)cc2)cc1 | -19 | 93 | 88 | 99
CCOc1ccc2nc(NCCNC(=O)C(C)(C)C)c(C)cc2c1 | -15 | 89 | 82 | 103
CN(C(=O)CSc1nc2c(-c3ccccc3)csc2c(=O)n1C)c1ccccc1 | -9 | · | · | 99
O=C(Nc1ccc(F)c(Cl)c1)N1CCC(CN2CCOCC2)CC1 | · | 102 | 105 | 103
Cc1oc(-c2cccc(C(F)(F)F)c2)cc1C(=O)O | 3 | 65 | 75 | 107
CCOc1ncc(-c2nnnn2-c2ccc(C)cc2)c(-c2cccc(Cl)c2)n1 | -9 | 105 | 92 | 100
Cc1nc(SCc2nc3ccccc3o2)n(C2CCCC2)c1C | -18 | 71 | 31 | ·

Of the compounds above, these contain an aryl thioether with sulfur outside any ring.
SMILES | HCMV UL50-53 inh | Sa growth inh | Sa growth inh second temp | GIV-Gai inh
CSc1nnc2c(n1)OC1(Nc3ccccc3-2)C(=O)Nc2ccc([N+](=O)[O-])cc21 (configuration not stated) | 34* | · | · | 86
C=CCn1c(C)cc(C(=O)CSc2nc3ccccc3c(=O)n2CC=C)c1C | -6 | 100 | 96 | ·
COc1ccc(-c2nc(SCC(=O)NCC3CCCO3)c(-c3ccc(F)cc3)[nH]2)cc1OC (configuration not stated) | -3 | 109 | 79 | 102
Cc1cc2c(c(SCc3ccc(Cl)cc3)n1)C(=O)OC2 | -4 | 96 | 102 | ·
COc1ccc(CSc2cccc3cccnc23)cc1 | -53 | 131 | 83 | ·
O=C(COC(=O)CSc1nnc(-c2ccc(Cl)cc2)o1)NC1CCS(=O)(=O)C1 (configuration not stated) | -17 | 80 | 91 | ·
Cn1c2ccccc2c2nnc(SCCN3CCOCC3)nc21 | -19 | 82 | 86 | 104
COC(=O)CSc1nnc(C)c2c(C)n(-c3ccc(Cl)cc3)nc12 | -9 | · | · | 122
CN(C(=O)CSc1nc2c(-c3ccccc3)csc2c(=O)n1C)c1ccccc1 | -9 | · | · | 99
Cc1nc(SCc2nc3ccccc3o2)n(C2CCCC2)c1C | -18 | 71 | 31 | ·

Source: PubChem BioAssay
